NPR1 antag: Natriuretic polypeptide receptor (hNpr1) antagonism - Primary qHTS; Potency, µM (top dose mostly 46.3 µM), for inactives: top-dose activity change, negative = inhibition, most hits filed as inhibitors; Atrial natriuretic peptide receptor 1 (Homo sapiens), P16066; HEK293 hNpr1 GloSensor cGMP, ANP-stimulated luminescence; 1.6% of 76,000 active; active = well fitted inhibition curve with a large enough effect; inconclusive = small, poorly fitted or top-dose-only effect; inactive = no such curve, though single readings can be large or run the other way;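 note: nearly all actives have a fitted effect of over 60% in size; nearly all hits also lower the signal before the agonist is added; a reference antagonist and vehicle were the controls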
Target sequence (P16066 whole entry, looked up): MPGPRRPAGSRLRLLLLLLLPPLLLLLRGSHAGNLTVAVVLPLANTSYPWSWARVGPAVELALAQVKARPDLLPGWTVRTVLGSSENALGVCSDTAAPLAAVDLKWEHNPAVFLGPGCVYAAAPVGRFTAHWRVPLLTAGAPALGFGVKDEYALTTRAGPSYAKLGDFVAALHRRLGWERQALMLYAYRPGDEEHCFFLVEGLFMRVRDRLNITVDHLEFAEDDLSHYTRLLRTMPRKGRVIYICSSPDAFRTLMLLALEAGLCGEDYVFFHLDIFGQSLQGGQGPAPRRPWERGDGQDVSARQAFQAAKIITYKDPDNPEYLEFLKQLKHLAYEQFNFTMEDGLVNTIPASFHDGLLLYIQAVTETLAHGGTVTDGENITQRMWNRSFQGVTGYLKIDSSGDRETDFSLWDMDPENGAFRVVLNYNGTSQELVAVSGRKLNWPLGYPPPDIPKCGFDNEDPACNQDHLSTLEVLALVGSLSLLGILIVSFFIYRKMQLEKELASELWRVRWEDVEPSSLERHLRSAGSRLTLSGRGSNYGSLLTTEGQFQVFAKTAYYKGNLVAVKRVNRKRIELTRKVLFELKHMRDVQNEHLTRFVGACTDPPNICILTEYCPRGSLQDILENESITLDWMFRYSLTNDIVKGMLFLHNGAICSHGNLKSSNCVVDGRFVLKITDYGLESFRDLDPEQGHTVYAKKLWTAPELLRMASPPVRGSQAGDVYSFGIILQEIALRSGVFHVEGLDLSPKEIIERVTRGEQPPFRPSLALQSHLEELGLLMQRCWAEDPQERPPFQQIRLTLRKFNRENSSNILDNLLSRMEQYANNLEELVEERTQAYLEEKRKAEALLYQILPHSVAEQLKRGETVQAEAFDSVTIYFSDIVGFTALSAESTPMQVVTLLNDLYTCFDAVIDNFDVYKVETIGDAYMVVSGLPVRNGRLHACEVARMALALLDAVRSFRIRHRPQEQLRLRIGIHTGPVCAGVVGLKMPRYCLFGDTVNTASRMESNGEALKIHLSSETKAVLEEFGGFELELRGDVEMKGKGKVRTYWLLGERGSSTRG
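Compound pre-incubated 30 min at room temperature on GloSensor-loaded HEK293 cells stably carrying hNpr1 and the pGS-40F cGMP biosensor. Stimulation uses hNppA at 0.1 nM final; luminescence is taken at baseline and 20 min post-agonist.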
Numbers without * were called inactive; ? = inconclusive; [ ] = dose if it differs, or a comment. % is set by controls: 0 for no effect and ±100 for the full control effect; potency is the fitted concentration of half-maximal effect.

NPR1 antag | Structure
0%[70.6 µM] | Cc1ccc(C(=O)NC[C@H]2O[C@@H](CC(=O)NC(C)C)[C@H](O)[C@@H]2O)cc1
-7% | Cc1nc(-c2ccc(F)cc2)n(Cc2cccc(C(F)(F)F)c2)c(=O)c1CCO
5.6µM* | O=C(c1ccc(F)cc1Cl)N1CCC(Cc2nc(-c3ccccc3)no2)CC1
0% | CC(=O)Nc1ccc(C2(C(=O)N3CCN(c4ccccn4)CC3)CCCCC2)cc1
-1% | N#CCn1ccn2nc3c(c2c1=O)CCCC3
0%[70.6 µM] | c1ccc(-c2nnc3ccc(NC4CC4)nn23)nc1
6% | Cc1nc(CCN(C)C(=O)C2C3C(=O)N(C4CCCCCC4)C[C@@]34C=C[C@@H]2O4)no1 (some centres not stated)
2% | NC(=O)N1CCCC(C(=O)NCCc2noc(-c3ccccc3)n2)C1 (configuration not stated)
-5%[70.6 µM] | O=C(C1CC1)N1C[C@@H](F)[C@@H](OCc2nc3ccccc3[nH]2)C1
1% | COCC(=O)NC[C@H]1CCN(Cc2ccccc2OC)C[C@H]1N(C)C
0% | O=C1N(Cc2cccc(F)c2F)CCCC1(O)CN1CCN(CC2CCC2)CC1 (configuration not stated)
-1% | Cc1nn(C(=O)CCC(=O)N2CCC(Cc3nncn3-c3ccccc3)CC2)c2ccccc12
-11% | O=C(c1ccccn1)N1CCC(Cc2nncn2-c2ccccc2)CC1
-7% | Cc1ccsc1C(=O)N1CCC2(CC1)NC(=O)N(c1ccc(F)cc1)N2
2% | COc1ccccc1CN1C[C@@H](CO)[C@H](c2ccncc2)C1
? | O=C(NCCOc1ccccc1)c1nc2c(o1)CCN(Cc1ccc3[nH]ccc3c1)CC2
-23% | Cc1nc(N2CCN(C(=O)COc3ccc(F)cc3)CC2)cc(C(F)(F)F)n1
10% | c1cc(-c2ccnc3nc(C4CCC4)nn23)ccn1
3% | CN1CCC(NC(=O)c2n[nH]c3c2CN(C(=O)c2cc(F)cc(F)c2)CC3)CC1
-16%[70.6 µM] | O=C1NC2(CCN(Cc3ccccn3)CC2)COc2ccccc21
-23% | CCOc1ccc(C(=O)NC2CCCN(c3cc(-c4ccc(F)cc4)[nH]n3)C2)cc1 (configuration not stated)
9% | O=C(c1ccccc1F)N1CCn2c(nnc2[C@@H]2C[C@@H](O)CN2Cc2ccccc2)C1
2% | Cc1ccc(OCC(=O)c2ccc3c(c2)N(CC(=O)NC2CCCCC2)C(=O)CO3)c(Cl)c1
-26%[70.6 µM] | O=C(NC1CCCCC1)O[C@@H]1CO[C@H]2[C@@H]1OC[C@@H]2NC(=O)c1ccccc1
3%[70.6 µM] | COc1ccccc1C(=O)N1CC[C@H]2COC(=O)N2c2cc(F)ccc2C1
-7% | CC(=O)N1CCCC(Cc2ncc(C)n2C(C)C)C1 (configuration not stated)
0% | COCC(=O)N1CCC(Oc2nccnc2N2CCc3ccccc32)C1 (configuration not stated)
-18% | CC1Oc2ccc(NC(=O)c3ccccc3)cc2CN(Cc2ccc(Cl)cc2)C1=O (configuration not stated)
0% | COc1cccc(CC(=O)N2CCC3(CC2)CN(c2ncccn2)CC3CO)c1 (configuration not stated)
-1% | O=C(c1cn[nH]c1)N1CCC(c2nc(CCOCC3CC3)no2)C1 (configuration not stated)

The list goes on (2 carried over from the part before).
NPR1 antag | Structure
0% | COc1cccc(CC(=O)N2CCC3(CC2)CN(c2ncccn2)CC3CO)c1 (configuration not stated)
-1% | O=C(c1cn[nH]c1)N1CCC(c2nc(CCOCC3CC3)no2)C1 (configuration not stated)
-28% | CC(NC(=O)c1cccc2c1CCN2C(=O)Nc1ccccc1)c1cccnc1 (configuration not stated)
-1%[70.6 µM] | COc1ccccc1C(=O)N[C@H]1[C@H](O)[C@H](O)C[C@@H]1c1cccnc1
0% | Cc1ccc(CNC(=O)[C@H]2CCC[C@H]2NC(=O)c2cnc(C)cn2)cc1
-1%[70.6 µM] | COCCNC(=O)c1nc(-c2c(C)cccc2C)c2ccccn12
-15% | CCOC(=O)c1cccc(NC(=O)c2ccc3c(c2)N(C)C2CCCCN2C3=O)c1 (configuration not stated)
-2% | O=C(c1ccccc1F)N1CCC(c2nn(-c3ccc(F)cc3)c(=O)[nH]2)CC1
13µM* | O=C1Cc2c(-c3ccccc3)n[nH]c2CN1CCOc1ccccc1
2% | O=C(c1cc(F)ccc1F)N1CCC(n2cc(-c3nc(C4CC4)no3)nn2)C1 (configuration not stated)
5%[70.6 µM] | O=C(O)c1cccc(-c2n[nH]c3c2CC(=O)N(CC2CCOCC2)C3)c1
-5% | CC(=O)NCCNc1cc(C)c2ccc(Cl)cc2n1
1% | CN1C(=O)CS(=O)(=O)C12CCN(C(=O)c1ccco1)CC2
5% | COc1cc2c(cc1OC)CN(C(=O)C[C@@H]1CCNC[C@@H]1Cc1cc(CN3CCCCC3)on1)CC2
-8%[70.6 µM] | O=C1COCC2(CN(CCC(F)(F)F)C2)CN1Cc1cccc(OC(F)(F)F)c1
10% | O=C(CN1CCCCC1)N1CCCC(N2CCN(Cc3ccc4c(c3)OCO4)CC2)C1 (configuration not stated)
4%[70.6 µM] | O=C(O)Cn1ccc2cc(OCCc3cccc(-c4ccccc4F)c3)cnc21
1%[70.6 µM] | CCCc1nnc([C@H]2CCN(Cc3ccc(C)o3)C2)o1
5% | Cc1ccc2c(c1)c(C(=O)N1CCC3(CCNC(=O)CC3)CC1)nn2C
6%[70.6 µM] | Cc1cc2cc(-c3c(C)noc3C)nc(-c3ccccc3)c2o1
-1% | O=C(CN1C(=O)NC2(CCOCC2)C1=O)NCCc1cccs1
0% | CN(C)c1ccc(C(=O)N2CCC(Oc3nccnc3N(C)C)C2)cc1 (configuration not stated)
-3% | COc1ccc(CN2CCc3nc(N4CCN(C)CC4)[nH]c(=O)c3CC2)c(OC)c1
4% | COCCNC(=O)[C@@H]1C[C@H](Oc2ccccc2)CN1C(=O)Nc1ccc2c(c1)OCCO2
0% | CC(C)C(=O)N1CCC2(CC1)OCC(C(=O)NCc1ccc(F)cc1)N2C(=O)c1ccccc1 (configuration not stated)
2% | CN1CCCCCC(O)c2cc(C(=O)NCCc3ccncc3)ccc21 (configuration not stated)
-21%[70.6 µM] | Cc1noc(C)c1-c1cc(-c2cccc(F)c2)cn2cncc12
0% | CCCN1CCC2(CCN([S+](=O)([O-])c3ccccc3)CC2)Oc2ccccc21
2%[70.6 µM] | CC(C)N1CCC(O)(c2csc(CN3CCOCC3)n2)CC1
-2%[70.6 µM] | CN(Cc1cccc(C(F)(F)F)c1)C1CCOc2ccccc21 (configuration not stated)
0%[70.6 µM] | c1cnc2nc(C3CCNC3)[nH]c2c1 (configuration not stated)
0% | CN(C)C[C@@H]1CN(S(C)(=O)=O)C[C@H]1NC(=O)c1ccc2[nH]ccc2c1
0% | O=C(NCCc1nc(-c2cccnc2)no1)C1NCCc2[nH]cnc21 (configuration not stated)
-1% | COc1ccc(CC(=O)Nc2ccc3n(c2=O)C[C@H]2C[C@@H]3CN(C(=O)Nc3ccc(OC)cc3)C2)cc1
-1% | CCC(=O)N1CCc2c(C(=O)N3CCN(c4cccc(OC)c4)CC3)cccc21
-1% | Cc1ncccc1C(=O)N1CCCCCCNC(=O)[C@@H]2CCC[C@@H]21
-3% | CCOc1ccccc1NC(=O)N1c2ccccc2CC1c1nc(C2CC2)no1 (configuration not stated)
-9% | COC1CN(C2CCN(C(=O)C(C)C)CC2)C12CCOCC2 (configuration not stated)
3% | O=C(Cn1nc2n(c1=O)CCCC2)Nc1ccc(C(F)(F)F)cc1
0% | COc1ccccc1OCC(=O)c1ccc2c(c1)N(CC(=O)N(C)Cc1ccccc1)C(=O)CO2
6%[70.6 µM] | COCCC(=O)N[C@H]1C[C@@H](c2nc(-c3ccc(OC(F)(F)F)cc3)no2)N(C)C1
-16% | CC1(C(=O)NCc2cccnc2)CN(Cc2ccccc2)Cc2ccc(N3CCOCC3)nc21 (configuration not stated)
4% | CC(C)CC(=O)NC[C@@H]1C[C@H](F)CN1C(=O)c1cn(CCN)nn1
4% | O=C(NC1CCCC1)N1CCC(Cc2nncn2CC2CC2)CC1
0% | O=C(Nc1cccc(F)c1)N1CCCCCC1c1nc(-c2ccncc2)no1 (configuration not stated)
0% | COCCS(=O)(=O)c1ncc(CN(C)Cc2ccsc2)n1Cc1ccccc1
-3% | O=C(c1cnccn1)N1CCC2(CC1)N=C(c1ccccc1)NO2
4% | CC(C)NC(=O)CN1C(=O)NC(c2ccc(Cl)cc2)C2=C1COC2=O (configuration not stated)
2% | CCc1nc(-c2c3n(c(=O)n(CC(=O)Nc4ccc(F)c(Cl)c4)c2=O)CCCC3)no1
-14% | CCOc1cccc(-c2noc(-c3ncn4c3COC(c3ccc(F)cc3)C4)n2)c1 (configuration not stated)
-7% | Cc1noc(CC2CCOC3(CCN(C(=O)c4cc(-c5ccc(F)cc5)n[nH]4)CC3)C2)n1 (configuration not stated)
5% | Cc1cccc(N2Cc3c(ncnc3N3CCN(Cc4ccccc4)CC3)N(C)CC2=O)c1
-15% | O=c1[nH]nc2n1CCN(S(=O)(=O)c1ccc(Cl)s1)CC2
2% | CCOc1ccc(CN2CCC(CO)(Cc3ccccc3Cl)CC2)cc1
-11% | Cn1cnnc1-c1nn(C)c2c1CNCC2
-10% | CCc1nc(-c2c3n(c(=O)n(Cc4cccc(F)c4)c2=O)CCCC3)no1
-4% | CN1CCC2(CCC1=O)CN(C(=O)c1ccc(Cn3cccn3)o1)CCN2C (configuration not stated)
5% | Cc1ccn2c(C(=O)N[C@H](Cc3ccccn3)C3CC(O)C3)nnc2n1 (some centres not stated)
1%[70.6 µM] | Cc1noc2c(-c3cccnc3NCCCn3ccnc3)cc(-c3ccccc3)nc12
-18% | Cc1noc(-c2ccc(C(C)(C)C)cc2)c1C(=O)NCc1ccc(Cl)cc1
-27% | COCCNC(=O)CC(c1ccccc1OC)c1cn(C)c2ccccc12 (configuration not stated)
-3% | O=C(c1ccccc1C(F)(F)F)N1CCC2(C1)C(=O)Nc1ccccc12 (configuration not stated)

Continuation:
NPR1 antag | Structure
1% | Cc1cn2cc(C(=O)N3CCCC4(C3)C(=O)N(C)c3ccccc34)ccc2n1 (configuration not stated)
? | CC(C)c1noc(CN(C)C(=O)c2csc3nc(-c4ccc(F)cc4)cn23)n1
-9% | Cc1nc2scc(CC(=O)N3CCC(C)CC3)n2c(=O)c1-c1cc(C)n(-c2cccc(Cl)c2)n1
2% | COC(=O)CNC(=O)c1nc(-c2cccc(C(F)(F)F)c2)c2cnccn12
? | COc1ccc(CC(=O)NC2CCCc3c2[nH]c2ccccc32)cc1OC (configuration not stated)
2%[70.6 µM] | CCCNC(=O)NC[C@H]1O[C@@H]2C[C@@H](CC(=O)NCc3nccn3C)O[C@@H]2[C@@H]1O
5% | CNC(=O)N1CCC(C2CCN(C(=O)c3ccc(Cl)s3)C2)CC1 (configuration not stated)
1% | CN(C)c1nc2c(c(=O)[nH]1)CCN(Cc1ccccc1F)CC2
0% | CCN(CC)C(=O)C(NC(=O)c1ccc(OC)cc1)C1CCN(C(=O)C(C)C)CC1 (configuration not stated)
2% | CN1CCC(NCc2nc3c(n2Cc2ccccc2)C(=O)N(CCOc2ccccc2)CCN3)CC1
-8% | Cc1nn(C)cc1CN(C)CC1(O)CCCN(Cc2ccc(F)cc2)C1=O (configuration not stated)
-4% | CCCc1ccc(S(=O)(=O)N2C[C@@H](F)C[C@H]2C(=O)N2CCc3ccccc3C2)cc1
-13% | CCN1c2cc(C(=O)N3CCN(c4ccccn4)CC3)ccc2C(=O)N2CCCCCC21 (configuration not stated)
2% | COc1cc(Cn2ccnc2-c2nc[nH]c2C)cc(OC)c1OC
5% | COCCn1ncc(N2CCC(C(=O)NCc3ccc(OC(C)C)cc3)C2)cc1=O (configuration not stated)
-2% | CN1CCN(c2nc3c(c(=O)[nH]2)CCN(Cc2ccccc2C(F)(F)F)CC3)CC1
2% | CCCNC(=O)N1CCCCCC1CN1CCC(OC)CC1 (configuration not stated)
-2% | CC(C)NC(=O)N1CCN(S(C)(=O)=O)[C@@H](C(=O)N[C@H](Cc2c[nH]c3ccccc23)C(N)=O)C1
-15% | COc1ccc(CNC(=O)Cn2c(-c3cccc(Cl)c3)nc(C)c(CCO)c2=O)cc1OC
3% | Cc1cc(-c2ccc(S(=O)(=O)NC3CCOC4(CCOCC4)C3)o2)on1 (configuration not stated)

In the list so far, twelve have a Cl atom.
NPR1 antag | Structure
5.6µM* | O=C(c1ccc(F)cc1Cl)N1CCC(Cc2nc(-c3ccccc3)no2)CC1
2% | Cc1ccc(OCC(=O)c2ccc3c(c2)N(CC(=O)NC2CCCCC2)C(=O)CO3)c(Cl)c1
-18% | CC1Oc2ccc(NC(=O)c3ccccc3)cc2CN(Cc2ccc(Cl)cc2)C1=O (configuration not stated)
-5% | CC(=O)NCCNc1cc(C)c2ccc(Cl)cc2n1
4% | CC(C)NC(=O)CN1C(=O)NC(c2ccc(Cl)cc2)C2=C1COC2=O (configuration not stated)
2% | CCc1nc(-c2c3n(c(=O)n(CC(=O)Nc4ccc(F)c(Cl)c4)c2=O)CCCC3)no1
-15% | O=c1[nH]nc2n1CCN(S(=O)(=O)c1ccc(Cl)s1)CC2
2% | CCOc1ccc(CN2CCC(CO)(Cc3ccccc3Cl)CC2)cc1
-18% | Cc1noc(-c2ccc(C(C)(C)C)cc2)c1C(=O)NCc1ccc(Cl)cc1
-9% | Cc1nc2scc(CC(=O)N3CCC(C)CC3)n2c(=O)c1-c1cc(C)n(-c2cccc(Cl)c2)n1
5% | CNC(=O)N1CCC(C2CCN(C(=O)c3ccc(Cl)s3)C2)CC1 (configuration not stated)
-15% | COc1ccc(CNC(=O)Cn2c(-c3cccc(Cl)c3)nc(C)c(CCO)c2=O)cc1OC

Some of the compounds tested. The share of hits here may be higher or lower than overall.
